Beta2AR agonist – agonists of human beta-2 adrenergic receptor inducing internalization; P07550; Am2.2-beta2AR cells, FAP receptor internalization, flow cytometry; reference of the scale not given here; response, % (concentration not given with the values); hit rate 0.43% among 340,000; AID 504454;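 active = response above a set limit, near 3 SD of response in nonfluorescent compounds, cut at about 42% in these data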;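 also: stock transfer was 100 nL into about 11 µL; a reference agonist was the positive control; negative values mostly stem from fluorescent compounds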
Target sequence (P07550 whole entry, looked up): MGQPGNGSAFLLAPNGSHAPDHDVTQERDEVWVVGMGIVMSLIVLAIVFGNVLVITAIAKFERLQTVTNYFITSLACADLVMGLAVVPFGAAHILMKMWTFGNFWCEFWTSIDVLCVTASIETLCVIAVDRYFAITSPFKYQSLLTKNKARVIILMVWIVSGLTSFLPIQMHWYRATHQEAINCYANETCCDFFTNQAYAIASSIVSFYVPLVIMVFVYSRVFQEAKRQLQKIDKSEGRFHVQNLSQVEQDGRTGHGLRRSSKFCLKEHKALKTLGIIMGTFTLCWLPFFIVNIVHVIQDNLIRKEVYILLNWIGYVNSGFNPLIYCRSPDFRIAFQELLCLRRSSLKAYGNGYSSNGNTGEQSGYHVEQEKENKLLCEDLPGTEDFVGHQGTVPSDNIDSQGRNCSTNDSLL
Ecoli growth – E. coli growth inhibition; OD600 absorbance (test concentration not listed); hit rate 0.21% among 330,000; AID 1053175; Escherichia coli growth, OD600, 23 h; stronger effect = lower value;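 active = OD600 absorbance below the run mean of sample wells minus 3.6 SD, in any replicate, cut at about 0.56 in these data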;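 also: stock transfer was 300 nL into about 60 µL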
UCH37 inh – inhibitors of human deubiquitinating enzyme UCH37 | Q9Y5K5 | purified proteasome/UCH37, Ub-AMC cleavage fluorescence | inhibition, % (no concentration beside the values) | hit rate 0.33% among 330,000;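 active = mean of two replicates above 20%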;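 also: 0% = compound-free wells with enzyme and 100% = wells lacking proteasome; stock transfer was 100 nL into about 20 µL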
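assay system = human UCH37 enzyme supplied as purified proteasome complex | amount = proteasome at 0.15 nM in the dispensed enzyme solution | schedule = 30 min compound-proteasome preincubation then 25 min substrate reaction, room temperature | measured by = fluorescence, ex 355 nm, em 460 nm | benchmarks = no-proteasome wells (full inhibition) and compound-free wells (no inhibition)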
HNF4A DNA FP – change in binding of human HNF4 alpha to DNA; HNF4a-FITC DNA binding, fluorescence polarization, 1 h; hit rate 0.3% among 360,000; activity change, % at 10 µM; P41235; in the data active = activity change above about 30%, passing the limit was not always enough;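 also: controls were the assay level and a saturating level of protein; the project sought stronger binding though the title names inhibitors; some compounds called inactive have numbers as strong as hits; positive values seem to mean higher polarization but the record does not say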
FGF22 binding – shifts melting point of recombinant human FGF22; recombinant FGF22 thermal shift, SYPRO orange fluorescence; percent of sucrose octasulfate shift, DMSO zero; hit rate 1.5% among 340,000; AID 651658; calls only at 9.99 µM;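 active = melting point raised past a set limit in the mean and every replicate; three in four hits are not shown here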
Target sequence (Q9HCT0 whole entry, looked up): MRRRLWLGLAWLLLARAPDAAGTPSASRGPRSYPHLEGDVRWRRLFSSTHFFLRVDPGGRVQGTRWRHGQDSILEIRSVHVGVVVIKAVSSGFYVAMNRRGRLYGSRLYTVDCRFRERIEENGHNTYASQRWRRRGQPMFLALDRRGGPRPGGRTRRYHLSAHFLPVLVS
rRNA inh HTS – inhibitors of bacterial rRNA selective over humanized ribosomes | E. coli WT GFP vs humanized-ribosome RFP mutants, fluorescence, 24 h; stronger effect = lower value; DMSO median 0, no signal -100 | GFP signal change (wild-type ribosome), % (concentration not given with the values) | hit rate 1.6% among 350,000 | AID 720706;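 active = significant combined selectivity score with lowered wild-type GFP, culture density cut under 30%, mutant RFP and density less affected; inactive = any of these conditions unmet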; also: one replicate is shown; some compounds called inactive have numbers as strong as hits
ALR H2O2 inh – human ALR oxidase inhibition via reduced H2O2. P55789. inhibition, % (concentration not given with the values). AID 485317. purified ALR, DTT oxidation, H2O2 HRP-luminol luminescence. hit rate 3.8% among 290,000;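 active = mean and each replicate at 75% or more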;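 also: stock transfer was 7.5 nL into about 7.5 µL; 0% = neutral wells and 100% = wells with inactivated enzyme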
Target sequence (P55789 whole entry, looked up): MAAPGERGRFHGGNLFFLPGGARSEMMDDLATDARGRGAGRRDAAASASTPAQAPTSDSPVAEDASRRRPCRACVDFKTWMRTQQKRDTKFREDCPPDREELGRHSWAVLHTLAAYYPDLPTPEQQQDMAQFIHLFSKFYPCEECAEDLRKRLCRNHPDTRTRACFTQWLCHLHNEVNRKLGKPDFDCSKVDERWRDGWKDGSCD
rRNA inh HTS OD600 – recorded beside rRNA inh HTS, whose call it bears; OD600 change, %; measured here: OD600 growth;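 optical density of the mix in the first replicate; 0 = DMSO median and -100 = no signal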
rRNA inh HTS RFP – further read-out of rRNA inh HTS, marked with its call; RFP signal change, %; measured here: RFP humanized mutant strains;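 first replicate; 0 = DMSO median and -100 = no signal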
* marks the source's active call; other numbers are inactive results; i = inactive; . = not tested or not shown; & = joins results of further samples. Some of the compounds tested, so the mix of outcomes need not match the whole.

Below each SMILES – FGF22 binding	UCH37 inh	ALR H2O2 inh	rRNA inh HTS RFP	Ecoli growth	rRNA inh HTS OD600	rRNA inh HTS	HNF4A DNA FP	Beta2AR agonist
CC(C)NC(=O)Cn1nnc(-c2ccccc2)c1COc1ccc2ccccc2c1
  i	.	.	2.9	.	-51	-13	0.0	.
CC1(Oc2cnc(Cl)c3ccccc23)CCN(Cc2ccc(OC(F)(F)F)cc2)C1 (configuration not stated)
  i	.	.	19	.	-23	-12	-0.6	.
O=C(COc1cccnc1[N+](=O)[O-])NCCc1ccc(Cl)cc1Cl
  .	4.2	.	-9.6	0.64	-24	-8	3.2	-19
CC(=O)Nc1cc(-c2ccc(N)cc2)cn2c(-c3cccc(C(F)(F)F)c3)cnc12
  i	.	.	3.6	.	1	-1	11	.
COc1cccc(C(C(=O)NC2CCCC2)N(Cc2cccnc2)C(=O)Cc2cccs2)c1 (configuration not stated)
  i	2.6	-1	-0.2	0.69	8	8	0.8	8
CCOc1ccccc1Nc1ncccc1C(=O)N1CCCC1
  .	4.7	7	.	0.72	.	.	1.1	-5
Fc1ccccc1N1CCN(c2nc3ccccc3n3nnnc23)CC1
  .	-17	3	.	0.76	.	.	-15	-4
Cc1ccc(C(=O)OCC(=O)Nc2ccc(S(N)(=O)=O)cc2)c(O)c1
  i	-3.0	-16	2.4	0.71	6	0	-1.3	2
Cc1ccccc1C(=O)NC(=S)Nc1ccc(N2CCOCC2)cc1
  i	4.0	5	-2.5	0.7	-7	-11	-0.5	1
Cc1cccc(CN2CCN(c3ccccn3)CC2)c1
  .	5.3	0	.	0.66	.	.	-3.4	-12
CCOC(=O)C1(Cc2ccccc2)CCCN(Cc2ccccn2)C1 (configuration not stated)
  i	0.2	-2	-0.1	0.61	3	1	4.4	3
CSc1nncc(-c2ccccc2)n1
  i	6.6	1	1.1	0.67	6	10	2.0	-5
CC(NC(=O)c1ccc2c(c1)S(=O)(=O)N=C1CCCCCN12)c1ccc(S(N)(=O)=O)cc1 (configuration not stated)
  i	2.5	-1	-2.0	0.7	8	6	0.6	3
Cc1c(Br)cc(C(=O)O)c(C)c1C
  .	5.3	5	.	0.69	.	.	4.0	-3
COC(=O)[C@@]1(Cc2ccc(OC)cc2)[C@H]2c3cc(C(=O)N4CCCC4)n(Cc4ccsc4Br)c3C[C@H]2CN1C(=O)c1ccccc1
  i	.	.	16	.	5	11	2.9	.
Cc1ccc(C)c(S(=O)(=O)N2CCN(C(=O)CCNS(=O)(=O)c3ccccc3)CC2)c1
  i	4.3	-17	0.7	0.69	-9	-7	2.5	-2
CC1(c2nnnn2Cc2ccccc2)CCC(=O)N1Cc1ccc(F)cc1 (configuration not stated)
  i	.	.	-1.0	.	-2	5	1.2	.
CCN(Cc1cccc(OC)c1)CC1CCCN(CCc2cccc(OC)c2)C1 (configuration not stated)
  i	3.7	-4	-4.4	0.65	-2	-9	7.6	7
CC(=O)Nc1ccc(NC(=O)C(C)Oc2ccc(C)nc2[N+](=O)[O-])cc1 (configuration not stated)
  i	3.7	3	-0.9	0.69	8	6	-2.1	0
CC(=O)N1C[C@H]2CON(C)[C@H]2C[C@H]1c1cccc(-c2ccccc2)c1
  i	.	.	.	.	.	.	1.2	-1
Cc1ccc(NC(=O)C(=O)NCc2ccc(/C=C(/C#N)C(=O)NCc3cccnc3)o2)cc1C
  .	-16	-9	.	0.67	.	.	-0.8	0
CN1CCN(c2nc3c(c(=O)[nH]c(=O)n3C)n2CCCSc2ncccn2)CC1
  .	3.5	-3	.	0.69	.	.	-0.2	-18
CN(C)/C=C(\C=O)c1ccc(Cl)cc1Cl
  i	2.3	3	2.6	0.66	3	4	-1.3	1
Cc1occc1C(=O)NNC(=O)C1CCCCC1
  .	1.5	.	.	0.64	.	.	-2.1	-1
Cc1cccc(C(=O)NCC(=O)N2CCCCCCC2)c1
  i	1.5	-2	-1.8	0.67	2	3	2.4	-7
CN(C)CCCN(C(=O)c1cccs1)c1nc2cc3c(cc2s1)OCO3
  i	3.4	9	-3.9	0.71	-12	3	2.1	-1
O=C1CCCN1CCC1CCN(C(=S)Nc2ccc(F)cc2)CC1
  .	2.5	-12	.	0.68	.	.	-1.2	6
Cc1ccc(C2OCC3(CO)COC(c4ccc(C)cc4)N23)cc1 (configuration not stated)
  .	-1.3	-2	.	0.7	.	.	-0.2	-7
CN(CC(=O)Nc1ccc(N2CCOCC2)cc1)C(=O)c1cc(F)c(F)cc1Cl
  i	2.2	61	2.8	0.65	7	6	2.8	-11
Cc1ccc(N(Cc2cc3ccc(C)cc3[nH]c2=O)C(=O)c2ccco2)c(C)c1
  i	-6.8	-5	7.8	0.67	5	7	-0.5	-6
CC(C)S(=O)(=O)CC(=O)c1ccc(Cl)cc1
  i	2.8	-5	1.3	0.71	10	13	-1.8	13
CCn1c(C)c(C)c2cc(C(=O)NCCCN3CCCCC3C)ccc21 (configuration not stated)
  i	2.7	7	19	0.7	17	14	9.4	11
Nc1ccc(C(=O)Nc2cccc3ncccc23)cc1
  i	2.1	-9	3.3	0.67	17	20	0.5	6
Cc1ccc(-c2noc(C3CCCN(S(=O)(=O)c4ccc5ccccc5c4)C3)n2)o1 (configuration not stated)
  .	-2.0	-20	.	0.75	.	.	7.5	3
O=c1[nH]nc(-c2cc(-c3ccccc3)nc3ccccc23)o1
  i	.	.	-6.9	.	-19	2	-2.0	.
CCNC(=O)CN1C(=O)NC2(CCCc3cc(OC)ccc32)C1=O (configuration not stated)
  .	.	3	.	.	.	.	1.2	3
CC(C)[C@H](NS(=O)(=O)c1ccccc1F)C(=O)OCC(=O)Nc1cccc(S(N)(=O)=O)c1
  i	1.8	1	-3.0	0.69	3	-2	-0.7	6
CC(C)CC1C(=O)N(Cc2cn(CC3CCCCC3)nn2)CCS(=O)(=O)N1Cc1ccc(-c2ccc(F)nc2)cc1 (configuration not stated)
  .	.	.	-2.0	.	6	-3	-2.0	.
CC(=O)c1ccc(N2CCCC2)c(F)c1
  .	6.2	-9	.	0.74	.	.	.	.
NC(=NC1CCCCC1)c1ccc(Cl)cc1
  i	3.0	-9	1.8	0.69	7	8	-1.5	-4
O=C(COC(=O)c1ccccc1-n1cnnn1)c1ccc(F)cc1
  i	-1.2	1	-1.3	0.66	2	0	-0.5	-11
Cc1ccc(N(C)C(=O)N2CCN(S(=O)(=O)c3c(C)cc(C)cc3C)CC2)cc1
  .	2.5	0	.	0.67	.	.	11	-4
O=C(O)C1CCCCC1C(=O)NCc1ccccc1 (configuration not stated)
  .	-1.5	-1	.	0.72	.	.	0.5	-9
CN1C(=O)/C(=C/c2cc(C(C)(C)C)c(O)c(C(C)(C)C)c2)NC1=S
  i	3.4	-8	1.2	0.72	8	7	5.4	1
COc1ccccc1/C=N/NC(=O)c1cccc(NC(=O)c2ccccc2C)c1
  i	.	0	1.4	.	-10	-4	-2.1	-1
COc1ccc(CCN2C(=O)C(Oc3ccccc3)C2c2ccc3c(c2)OCO3)cc1 (configuration not stated)
  .	2.2	-2	.	0.7	.	.	-0.7	5
Cc1cccc2sc(N(CCN(C)C)C(=O)c3ccc4ccccc4c3)nc12
  i	5.7	-9	1.3	0.7	-19	-13	-0.2	-1
Cc1cc(C(=O)Cn2nc(C(=O)O)c3ccccc3c2=O)c(C)n1-c1cccc(C(F)(F)F)c1
  i	1.5	-5	6.4	0.71	1	7	-2.2	-2
Cc1cc(C)c(C(=O)CSc2nnc(C)s2)c(C)c1
  .	2.9	4	2.6	0.72	-1	3	-1.9	-1
Cc1nc(NC(N)=S)sc1C(=O)Nc1ccccc1
  .	4.9	15	.	0.69	.	.	3.6	-4
COc1ccc(C2=NOC(COC(=O)c3ccc4ccccc4n3)C2)cc1 (configuration not stated)
  .	-0.4	-3	.	0.7	.	.	0.2	-10
O=C(O)CCC(=O)Nc1cc(C(F)(F)F)cc(C(F)(F)F)c1
  i	6.8	.	.	0.67	.	.	3.1	1
COc1ccc(N2C(=O)/C(=C/c3ccc([N+](=O)[O-])cc3)N=C2C)cc1
  i	2.0	.	-0.6	0.74	6	0	-3.3	0
COc1cccc(S(=O)(=O)Nc2ccc3c(c2)[C@H]2C[C@H](CC(=O)N[C@@H](C)c4ccccc4)O[C@H](CO)[C@H]2O3)c1
  i	.	.	-2.9&5.9	.	-13&-26	4&-5	0.8	.
CC1(C(=O)NS(=O)(=O)Cc2ccccc2)CCN1C(=O)Cc1cc(F)ccc1F (configuration not stated)
  i	.	.	3.1	.	13	8	2.2	.
Cc1ccc(S(=O)(=O)N2CCN(C(=O)C3CCN(C(=O)c4ccc(F)cc4)CC3)CC2)c(C)c1
  i	0.4	-9	-4.3	0.66	-15	-19	-0.2	-2
Cc1ccc(-n2nc(C(=O)O)c(C)c(C#N)c2=O)cc1Cl
  i	-7.9	-14	-0.3	0.69	4	17	1.3	4
COc1ccc(-c2nc3ccc(C)cn3c2Cc2cccc(Cl)c2)cc1OC
  i	.	.	-4.2	.	-61	-40	-1.1	.
Cc1cc(C(F)(F)F)nn1CCCNC(=O)c1cnccn1
  .	1.7	-9	1.0	0.67	9	1	-2.2	-7
Cc1cccn2c(=O)c3cc(C(=O)NC4CCCC4)c(=N)n(CCCN4CCOCC4)c3nc12
  i	i	1	0.5	0.69	-11	-1	-0.1	-18

Looked up above.
Beta2AR agonist with `CCNC(=O)CN1C(=O)NC2(CCCc3cc(OC)ccc32)C1=O` (configuration not stated) → 3
rRNA inh HTS with `CC1(Oc2cnc(Cl)c3ccccc23)CCN(Cc2ccc(OC(F)(F)F)cc2)C1` (configuration not stated) → -12

Further entries:
Below each SMILES – FGF22 binding	UCH37 inh	ALR H2O2 inh	rRNA inh HTS RFP	Ecoli growth	rRNA inh HTS OD600	rRNA inh HTS	HNF4A DNA FP	Beta2AR agonist
Cc1ccc(Cc2c(C)[nH]c(=S)[nH]c2=O)cc1
  i	1.7	31	1.7	0.64	-5	7	1.6	1
Cn1c(=O)c2[nH]c(CCCC(=O)O)nc2n(Cc2ccccc2)c1=S
  i	1.7	.	0.1	0.67	-9	-6	0.8	5
CCC(NC(=O)NCc1ccc2c(c1)OCO2)(C(F)(F)F)C(F)(F)F
  .	3.5	-4	.	0.68	.	.	5.4	4
COC(=O)C(C)N1C(=O)S/C(=C/c2cc(C)n(-c3ccccn3)c2C)C1=O (configuration not stated)
  .	.	15	.	.	.	.	-0.9	-2
Cc1cc2nc(C(F)(F)F)cc(-c3cccs3)n2n1
  i	-11	.	-3.4	0.66	-10	-9	0.9	-16
Cc1ccc(NC(=O)c2ncn(CCCNCCCN3CCCC3=O)n2)cc1C
  i	.	.	-3.4	.	1	2	-1.8	-7
Cc1ccc(Cl)cc1NC(=O)CCCN1C(=O)c2cccnc2C1=O
  i	.	-6	-4.7	.	1	10	-1.1	-4
O=C(CN1C(=O)C2C3C=CC(C4CC34)C2C1=O)Nc1cccc2ncccc12 (configuration not stated)
  i	4.0	-20	4.5	0.72	-11	-4	-3.0	6
Cc1cc(-c2ccccc2)nc2cc(C(=O)N(Cc3ccccc3)Cc3ccccc3)nn12
  .	.	-3	.	.	.	.	0.7	-1
